Source: PubChem BioAssay
B2AR ag – human beta-2 adrenergic receptor agonism by FAP; P07550; actives 0.43% (n = 340,000); Am2.2-beta2AR cells, FAP receptor internalization, flow cytometry; reference of the scale not given here; response, % (test concentration not listed);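 active = response above a set limit, near 3 SD of response in nonfluorescent compounds, cut at about 42% in these data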;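 also: stock transfer was 100 nL into about 11 µL; a reference agonist was the positive control; negative values mostly stem from fluorescent compounds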
Bfl-1 A1 inh – inhibitors of the anti-apoptotic protein A1, read as caspase activation; MEF A1-2A-BIM cells, Caspase-Glo 3/7 luminescence, 3 h; percent of clofoctol response, vehicle zero; caspase activation, % (no concentration beside the values); actives 0.066% (n = 330,000); AID 2462;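 active = over half of replicate activation scores above 10%, or exactly half above 10 with the replicate mean above 10; inconclusive = replicate mean below 10 yet half the replicates above 10; inactive = over half of replicates below 10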;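 also: wells of about 30 µL received 50 nL stock; many hits fall short of the cut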
RanGTP-Impb inh – inhibitors of RanGTP-importin-beta interaction, primary screen, biochemical, FRET, CFP-Ran, YFP-importin-beta, homogeneous; cell-free CFP-Ran/YFP-importin-beta FRET ratio; inhibition, % (test concentration not listed); actives 1.1% (n = 300,000);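 active = most replicates above 15%; inconclusive = exactly half above 15%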;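 also: 0% = DMSO wells and 100% = Ran loaded with GDP instead of GTP; wells of about 40 µL received 100 nL stock; the first replicate is given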
LANA-H2A inh – blocks KSHV LANA binding to histone H2A/H2B; actives 0.6% (n = 320,000); cell-free LANA-H2A/H2B peptide, fluorescence polarization; inhibition, % (concentration not given with the values); Q9QR71; AID 2629; in the data active = inhibition mostly above about 10%, no sharp cut-off; inactive = mostly below about 6.7%;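 also: stock transfer was 7.5 nL into about 10 µL; 0% = median of vehicle wells and 100% = median of positive control wells; one replicate is shown; the record names a cut of 25% in any replicate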
Target sequence (Q9QR71 whole entry, looked up): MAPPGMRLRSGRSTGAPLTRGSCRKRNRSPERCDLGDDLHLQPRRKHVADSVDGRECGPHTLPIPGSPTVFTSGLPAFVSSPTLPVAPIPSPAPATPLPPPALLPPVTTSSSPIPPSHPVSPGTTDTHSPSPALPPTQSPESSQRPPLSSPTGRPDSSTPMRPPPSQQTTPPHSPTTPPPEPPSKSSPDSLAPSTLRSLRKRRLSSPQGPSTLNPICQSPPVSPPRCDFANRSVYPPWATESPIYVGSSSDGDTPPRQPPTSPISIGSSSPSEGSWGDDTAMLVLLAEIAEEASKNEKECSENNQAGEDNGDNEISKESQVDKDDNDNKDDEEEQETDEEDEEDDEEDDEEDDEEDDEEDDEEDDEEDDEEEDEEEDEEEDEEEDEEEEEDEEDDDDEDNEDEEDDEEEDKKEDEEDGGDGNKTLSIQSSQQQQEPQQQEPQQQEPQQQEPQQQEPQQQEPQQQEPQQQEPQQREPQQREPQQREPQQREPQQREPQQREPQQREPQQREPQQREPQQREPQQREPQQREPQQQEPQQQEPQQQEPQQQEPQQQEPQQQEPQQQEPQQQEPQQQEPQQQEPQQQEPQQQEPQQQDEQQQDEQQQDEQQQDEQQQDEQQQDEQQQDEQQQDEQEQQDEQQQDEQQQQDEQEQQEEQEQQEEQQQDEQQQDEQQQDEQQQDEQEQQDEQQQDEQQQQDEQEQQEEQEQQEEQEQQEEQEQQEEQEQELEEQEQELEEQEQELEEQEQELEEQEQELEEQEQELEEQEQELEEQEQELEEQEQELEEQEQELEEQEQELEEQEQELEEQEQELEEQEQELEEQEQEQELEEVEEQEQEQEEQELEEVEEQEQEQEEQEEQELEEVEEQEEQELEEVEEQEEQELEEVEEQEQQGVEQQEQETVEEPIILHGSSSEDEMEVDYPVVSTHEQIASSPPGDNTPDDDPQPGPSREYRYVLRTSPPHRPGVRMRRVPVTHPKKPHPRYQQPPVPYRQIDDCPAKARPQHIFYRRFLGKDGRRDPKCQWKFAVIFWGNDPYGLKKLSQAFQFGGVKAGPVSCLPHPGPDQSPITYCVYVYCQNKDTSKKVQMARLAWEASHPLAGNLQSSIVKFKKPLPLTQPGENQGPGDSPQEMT
Beta cell apopt – beta cell apoptosis inhibition; actives 0.8% (n = 300,000); AID 435005; protection from apoptosis, % (concentration not given with the values); INS-1E cytokine-induced death, ATP luminescence, 48 h; percent of positive-control rescue, neutral wells zero;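 active = all replicates at 75% or more, or half of them and the mean; inconclusive = half reach 75% but not the mean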;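 also: 0% = cytokine-treated negative control wells and 100% = positive control rescue; higher means more ATP so stronger rescue from cytokine killing; wells of about 40 µL received 100 nL stock; the first replicate is given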
UCH37 inh – human UCH37 deubiquitinating enzyme inhibition | Q9Y5K5 | purified proteasome/UCH37, Ub-AMC cleavage fluorescence | inhibition, % (no concentration beside the values) | actives 0.33% (n = 330,000);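 active = mean of two replicates above 20%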;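 also: 0% = compound-free wells with enzyme and 100% = wells lacking proteasome; stock transfer was 100 nL into about 20 µL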
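Signal – fluorescence, ex 355 nm, em 460 nm · System – Proteasome-bound UCH37 · Input – 0.15 nM proteasome as dispensed · Timing – 30 min preincubation with enzyme, 25 min cleavage at room temperature · Read-out basis – percent inhibition of cleavage signal versus uninhibited and no-proteasome wells · Medium – Tris-HCl pH 7.4 with ATP-MgCl2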
Calb FLC – C. albicans growth modulation with fluconazole | C. albicans CaCi-2 (fluconazole-resistant clinical isolate) + fluconazole, Alamar Blue growth, 48 h | growth inhibition, % (test concentration not listed) | actives 0.57% (n = 300,000) | AID 1979;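 active = most replicates above 75%; inconclusive = exactly half above 75%; inactive = most below 75%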;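 also: all wells also contain fluconazole at 8 µg/ml as a sub-toxic cotreatment; 0% = median of DMSO wells and 100% = median of geldanamycin control wells; wells of about 8 µL received 7.5 nL stock; the first replicate is given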
T cruzi inh – T. cruzi replication inhibition; actives 1.4% (n = 300,000); inhibition, % (test concentration not listed); T. cruzi beta-gal in NIH3T3, luminescence, 90 h;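 active = mean inhibition across valid replicates above about 55%, limit read from the data; inconclusive = mean below that limit but half or more replicates reach it; inactive = mean below it, under half of replicates reach it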;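 also: signal also drops with host cell toxicity which is not excluded here; 0% = plate median of DMSO wells and 100% = zero luminescence signal; higher percent means less beta-gal luminescence so fewer parasites; stock transfer was 50 nL into about 50 µL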
An asterisk follows results filed as active.

Results for c1ccc2c(c1)nc1n2CCN1CCN1CCCC1 ?
B2AR ag: -8.1; Bfl-1 A1 inh: 0.9; RanGTP-Impb inh: -1.0; LANA-H2A inh: 2.1; Beta cell apopt: -8.4; UCH37 inh: 4.0; Calb FLC: 3.8; T cruzi inh: 11.5

How did COc1ccc(CONc2ncnc3nonc23)cc1[N+](=O)[O-] do in these assays?
B2AR ag: 0.6; Bfl-1 A1 inh: -4.8; RanGTP-Impb inh: 4.1; LANA-H2A inh: -5.3; Beta cell apopt: -5.1; UCH37 inh: 5.4; Calb FLC: 4.3; T cruzi inh: -7.0

What do the screens show for `CCn1c(CSc2ncccn2)nnc1SCC(=O)N1CCCCC1`?
B2AR ag: -1.4; Bfl-1 A1 inh: -0.1; RanGTP-Impb inh: 0.3; LANA-H2A inh: -0.3; Beta cell apopt: -1.5; UCH37 inh: -1.9; Calb FLC: -2.8; T cruzi inh: 6.9

How did O=C(N/N=C/c1ccc(Cl)c(Cl)c1)c1ccc2nc[nH]c2c1 do in these assays?
B2AR ag: 17.4; Bfl-1 A1 inh: -1.3; RanGTP-Impb inh: 0.1; LANA-H2A inh: 0.6; Beta cell apopt: 32.9; Calb FLC: -1.2; T cruzi inh: -9.4

How did COc1ccc(NC(=O)CCNS(=O)(=O)c2cccc3nonc23)cc1Cl do in these assays?
B2AR ag: 14.2; Bfl-1 A1 inh: 0.8; RanGTP-Impb inh: 9.5; LANA-H2A inh: -2.9; Beta cell apopt: -2.4; UCH37 inh: 4.9; Calb FLC: -7.2; T cruzi inh: 15.1

Results for Cc1nc(C(F)(F)F)ccc1C(=O)N1CCCCC1 ?
B2AR ag: 8.5; Bfl-1 A1 inh: 0.9; RanGTP-Impb inh: 0.9; LANA-H2A inh: 1.1; Beta cell apopt: -2.6; UCH37 inh: 1.0; Calb FLC: -8.0; T cruzi inh: -6.2

Results for COc1ccc2c(c1)C(=O)CC(O)(C(F)F)O2 (configuration not stated) ?
B2AR ag: 10.1; Bfl-1 A1 inh: 1.2; RanGTP-Impb inh: 0.8; LANA-H2A inh: 3.1; Beta cell apopt: 0.0; UCH37 inh: -314.5; Calb FLC: 2.1; T cruzi inh: -7.9

How did Cc1ccc(NC(=O)c2cccc(S(=O)(=O)N3CCc4ccccc4C3)c2)nc1 do in these assays?
B2AR ag: -3.5; RanGTP-Impb inh: 4.5; LANA-H2A inh: -8.7; Beta cell apopt: -4.6; UCH37 inh: 0.5; Calb FLC: -5.8; T cruzi inh: 15.6

How did Oc1ccccc1-c1n[nH]c(=S)n1Cc1ccco1 do in these assays?
B2AR ag: 4.1; Bfl-1 A1 inh: 0.4; RanGTP-Impb inh: -7.8; LANA-H2A inh: -1.4; Beta cell apopt: -2.0; UCH37 inh: -0.8; Calb FLC: 0.4; T cruzi inh: 0.7

Results for Cn1ccc2ccc(C3=CC(=O)C[C@H](c4ccc(F)cc4)C3)cc21 ?
B2AR ag: 0.5; Bfl-1 A1 inh: -1.1; LANA-H2A inh: 7.8; Beta cell apopt: -16.7; UCH37 inh: 0.3

What do the screens show for `CCOC(=O)C1CCN(C(=O)CCc2nc3sc4c(c3c(=O)[nH]2)CCCC4)CC1`?
B2AR ag: 9.7; Bfl-1 A1 inh: -0.3; RanGTP-Impb inh: 2.4; LANA-H2A inh: 3.8; UCH37 inh: 2.5; Calb FLC: 10.4; T cruzi inh: 13.2

Results for COc1ccc([C@H]2CC(=O)C=C(c3ccc4[nH]ccc4c3)C2)cc1OC ?
B2AR ag: -5.8; Bfl-1 A1 inh: -0.9; LANA-H2A inh: 0.0; Beta cell apopt: 0.7; UCH37 inh: -0.6

Results for Cc1cccc(Nc2nc(N)nc(CSc3nccn3C)n2)c1 ?
B2AR ag: -4.3; Bfl-1 A1 inh: -1.3; RanGTP-Impb inh: 4.4; LANA-H2A inh: 1.3; Beta cell apopt: -1.4; UCH37 inh: 2.9; Calb FLC: 6.6; T cruzi inh: -9.9

How did O=C(N/N=C/c1cccnc1)c1ccc(NC(=O)C(c2ccccc2)c2ccccc2)cc1 do in these assays?
B2AR ag: 2.1; Bfl-1 A1 inh: -1.3; RanGTP-Impb inh: -1.4; LANA-H2A inh: -0.6; Beta cell apopt: 109.8*; Calb FLC: -1.0; T cruzi inh: 2.6

What do the screens show for `COc1ccc(Cl)cc1NC(=O)[C@@]1(CC(=O)O)CC(/C=C/c2ccccc2)=NO1`?
B2AR ag: 2.9; Bfl-1 A1 inh: 0.6; RanGTP-Impb inh: -4.3; LANA-H2A inh: -5.7; UCH37 inh: 4.3; Calb FLC: 10.8; T cruzi inh: -10.3

What do the screens show for `CCOC(=O)N1CCC(=NNc2nc3ccccc3s2)CC1`?
B2AR ag: 34.8; Bfl-1 A1 inh: -2.6; RanGTP-Impb inh: 4.3; LANA-H2A inh: -1.8; Beta cell apopt: 4.1; UCH37 inh: 0.4; Calb FLC: inconclusive; T cruzi inh: -9.6

Results for CCc1nnc(NC(=O)C2CCCN(C(=O)c3ccc(Cl)cc3)C2)s1 (configuration not stated) ?
B2AR ag: -3.3; Bfl-1 A1 inh: -2.2; LANA-H2A inh: -0.8; Beta cell apopt: -0.1; UCH37 inh: 1.1

How did COc1ccc(Nc2nc(NCc3ccco3)nc(N)c2[N+](=O)[O-])cc1 do in these assays?
B2AR ag: -1.8; Bfl-1 A1 inh: 0.1; RanGTP-Impb inh: 1.2; LANA-H2A inh: 2.0; Beta cell apopt: 1.3; Calb FLC: 60.6; T cruzi inh: -6.6

Results for O=C(N/N=C/c1ccco1)c1ccc(Br)o1 ?
B2AR ag: -3.1; Bfl-1 A1 inh: -1.0; RanGTP-Impb inh: -0.4; LANA-H2A inh: -0.4; Calb FLC: 3.3; T cruzi inh: -11.1

What do the screens show for `O=c1oc2ccccc2cc1NCc1ccccc1O`?
B2AR ag: -13.5; Bfl-1 A1 inh: -3.2; RanGTP-Impb inh: inconclusive; LANA-H2A inh: 2.5; Beta cell apopt: 5.5; UCH37 inh: 5.4; Calb FLC: 15.7; T cruzi inh: 3.4

What do the screens show for `CCCNc1ccc(S(=O)(=O)N(C(C)C)C(C)C)cn1`?
B2AR ag: 19.1; Bfl-1 A1 inh: -0.3; RanGTP-Impb inh: 9.7; LANA-H2A inh: 2.0; Beta cell apopt: -4.1; UCH37 inh: 1.3; Calb FLC: -9.3; T cruzi inh: -2.1

How did O=C(Nc1nccs1)c1ccc(CSc2nnnn2-c2ccccc2)cc1 do in these assays?
B2AR ag: -14.1; Bfl-1 A1 inh: 0.5; RanGTP-Impb inh: 1.3; LANA-H2A inh: -3.6; Beta cell apopt: -2.4; UCH37 inh: -2.1; Calb FLC: 51.4; T cruzi inh: -12.1

Results for CC1C(=O)N2CCCc3cc(NC(=O)C(=O)NCCc4ccc(F)cc4)cc1c32 (configuration not stated) ?
B2AR ag: -2.4; Bfl-1 A1 inh: 0.4; RanGTP-Impb inh: -2.7; LANA-H2A inh: -5.9; Beta cell apopt: -1.7; UCH37 inh: 4.9; Calb FLC: -10.4; T cruzi inh: 16.5

How did Cc1ccc(NC(=O)c2ccc3nc[nH]c3c2)nc1 do in these assays?
B2AR ag: -5.7; Bfl-1 A1 inh: -3.4; RanGTP-Impb inh: 5.8; LANA-H2A inh: 5.8; Beta cell apopt: -6.4; UCH37 inh: 0.8; Calb FLC: 2.7; T cruzi inh: -8.4

What do the screens show for `Cc1ccc(C(=O)CCC(=O)Nc2ncccc2O)cc1`?
B2AR ag: 5.0; Bfl-1 A1 inh: 0.9; RanGTP-Impb inh: -2.5; LANA-H2A inh: 10.1; Beta cell apopt: 2.6; UCH37 inh: -0.7; Calb FLC: 7.0; T cruzi inh: -10.5

How did CCCn1c(SCC#N)nc2c(c1=O)C1(CCCC1)Cc1ccccc1-2 do in these assays?
B2AR ag: 7.9; Bfl-1 A1 inh: 0.0; RanGTP-Impb inh: 3.0; LANA-H2A inh: 6.3; Beta cell apopt: 8.7; UCH37 inh: 0.0; Calb FLC: 1.3; T cruzi inh: 22.6

What do the screens show for `CC(C)CCNC(=O)C(c1ccc(O)cc1)N(Cc1ccco1)C(=O)CCC(=O)Nc1nccs1` (configuration not stated)?
B2AR ag: 5.4; Bfl-1 A1 inh: 0.3; RanGTP-Impb inh: 0.7; LANA-H2A inh: 2.8; Beta cell apopt: -2.9; UCH37 inh: 3.5; Calb FLC: 1.0; T cruzi inh: 12.1

How did COc1ccc(NC(=O)C2CCCN2C(=O)OCc2ccccc2)cc1 (configuration not stated) do in these assays?
B2AR ag: -2.4; Bfl-1 A1 inh: 0.3; RanGTP-Impb inh: -3.5; LANA-H2A inh: -1.2; Beta cell apopt: 6.8; UCH37 inh: 3.5; Calb FLC: -1.5; T cruzi inh: -8.0

What do the screens show for `Cc1csc(=O)n1CC(=O)OCC(=O)NNC(=O)c1ccc(Cl)cc1`?
B2AR ag: 0.5; Bfl-1 A1 inh: -0.1; LANA-H2A inh: 1.7; Beta cell apopt: -1.8; UCH37 inh: 1.8

What do the screens show for `COc1ccc(CNC(=O)C(c2cccc(C)c2)N(C(=O)c2csnn2)C2CC2)cc1` (configuration not stated)?
B2AR ag: 11.7; Bfl-1 A1 inh: -0.2; RanGTP-Impb inh: -0.9; LANA-H2A inh: -0.7; Beta cell apopt: -6.7; UCH37 inh: 4.4; Calb FLC: -3.0; T cruzi inh: -0.7

How did Cc1noc(C)c1C(=O)OCC(=O)Nc1ncc(Cl)c(C)c1Cl do in these assays?
B2AR ag: -6.7; Bfl-1 A1 inh: 0.2; LANA-H2A inh: 3.8; Beta cell apopt: -1.5; UCH37 inh: 0.0

Results for Cc1ccc(N2CC(c3nc4ccccc4[nH]3)CC2=O)c(C)c1 (configuration not stated) ?
B2AR ag: -18.2; Bfl-1 A1 inh: 0.4; RanGTP-Impb inh: -0.7; LANA-H2A inh: -1.2; Beta cell apopt: -0.3; UCH37 inh: 2.0; Calb FLC: -7.7; T cruzi inh: 1.2

What do the screens show for `C=CCn1c(=N)n(CC(=O)c2ccc(Br)s2)c2ccccc21`?
B2AR ag: 7.5; Bfl-1 A1 inh: 0.8; RanGTP-Impb inh: -3.1; LANA-H2A inh: 4.2; Beta cell apopt: 15.2; UCH37 inh: 3.7; Calb FLC: -21.3; T cruzi inh: -1.7

Results for CSC1=N/C(=C\c2ccc(C)o2)C(=O)S1 ?
B2AR ag: -6.1; Bfl-1 A1 inh: 0.4; RanGTP-Impb inh: -2.1; LANA-H2A inh: -6.5; Beta cell apopt: -1.0; UCH37 inh: 3.3; Calb FLC: 2.5; T cruzi inh: -20.2

Results for COc1ccc(/C=N/NC(=O)c2cccc([N+](=O)[O-])c2)cc1OC ?
B2AR ag: -2.3; Bfl-1 A1 inh: -0.8; RanGTP-Impb inh: -3.4; LANA-H2A inh: 4.4; Beta cell apopt: -2.8; Calb FLC: 18.3; T cruzi inh: -4.9
